Source: PubChem (several laboratories)
RN4220 kill – growth inhibition of S. aureus RN4220, primary screen, OD600. 16 h. inhibition, % (concentration not given with the values). 330,000 compounds, 0.33% hits;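 active = z-score of -3 or lower and OD600 up to 0.18 on both plates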;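 also: plate controls were untreated cells for no effect and reference antibiotic for full effect; stock transfer was 100 nL into about 80 µL; one replicate is shown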
BJeLR lethal – MLPCN primary cell-based screen for lethality selective to Ras in HRASV12 cells. 300,000 compounds, 0.17% hits. AID 1554, 2009. inhibition, % (concentration not given with the values). BJeLR (HRASV12) viability, CellTiter-Glo ATP luminescence, 48 h; reference of the scale not given here;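 active = replicate mean above 50%; inconclusive = above 50% but judged a plate artefact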;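 also: 50 nL library stock added to about 25 µL; numbers are from one replicate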
PrP 5UTR inh – inhibition of PrP 5' UTR reporter expression | inhibition, % (no concentration beside the values) | 340,000 compounds, 0.35% hits | cell-based PrP 5' UTR mRNA reporter, plate reader;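 active = every replicate at 50% or more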;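 also: 0 = median of the neutral control wells; tested in H4 reporter cells; numbers are from one replicate; inactives centre near -14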
Mtb hypoxia inh – PubChem AID 1159583 | 300,000 compounds, 0.1% hits | M. tuberculosis hypoxia-regulated fluorescent reporter, fluorescence | fluorescence inhibition, % (test concentration not listed);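 active = 35 to 45% if threefold the growth effect, above 45% if 1.5-fold the growth effect; inactive = the rest, general growth blockers included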;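 also: wells of about 50 µL received 100 nL stock; 0% = vehicle wells and 100% = reference inhibitor wells; whole bacteria with a GFP reporter of the hypoxia response; strong numbers were not always called active; many hits fall short of the cut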
ugtP null kill – growth inhibition of ugtP-null S. aureus, primary screen, RN4220 ugtP deletion, OD600; 16 h; some inactives read as strong as hits; growth inhibition, % (concentration not given with the values); 330,000 compounds, 0.54% hits;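 active = z-score under -3 and OD600 up to 0.15 on both plates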;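 also: plate controls were untreated wells for no effect and antibiotic for full effect; wells of about 80 µL received 100 nL stock; the first replicate is given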
Bead autofluor – counter-screen for toxin protease inhibitors: compound fluorescence. 360,000 compounds, 3.1% hits. compound autofluorescence counterscreen, microsphere flow cytometry; stronger effect = higher value. fluorescence intensity (no concentration beside the values);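 active = at least 3 SD above the mean of all compounds, about 16000 in these data; inconclusive = too few beads counted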;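 also: 100 nL of 1 mM stock went into each well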
Mtb hypoxia inh growth – recorded beside Mtb hypoxia inh, whose call it bears; growth inhibition, %; measured here: M. tuberculosis growth (absorbance);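 0% = vehicle and 100% = reference antibiotic; read after six days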
Numbers without * were called inactive; ? = inconclusive; · = no result given; & = joins results of further samples.

SMILES	RN4220 kill	BJeLR lethal	PrP 5UTR inh	Mtb hypoxia inh	Mtb hypoxia inh growth	ugtP null kill	Bead autofluor
COc1ccc(C(=O)Oc2cccc3cccnc23)cc1[N+](=O)[O-]	9.5	5	0	2	1	-1	2489
CCOc1ccc(NC(=O)CN(C)C(=O)c2c(-c3ccccc3)noc2C)cc1OCC	7.9	·	-23	-2	3	2	8826
CC1(C)CC2CC(C)(CN2C(=S)Nc2ccccc2)C1 (stereo not drawn)	7.3	5	-17	19	10	6	4143
CCCc1cc(=O)[nH]c(SCC(=O)c2ccc3c(c2)NC(=O)CO3)n1	2.8	6	-7	-13	-11	-4	3550
O=C1CCC(C(=O)OCc2c(Cl)cccc2Cl)N1 (stereo not drawn)	-1.4	-16	-19	1	11	-5	20438*
O=C(NNC1=C(C(=O)C(F)(F)F)CCC1)c1ccc(Cl)cc1	101*	0	-19	2	7	100*	11345
Cc1[nH]c2ccccc2c1C=NNc1ccccn1	-2.2	·	·	0	11	-3	·
O=C(COC(=O)c1ccc(F)c(S(=O)(=O)N2CCOCC2)c1)NCc1ccco1	1.7	11	-15	6	13	3	6112
O=C(COC(=O)C=Cc1cccc(F)c1)Nc1ccccc1	-2.5	·	·	-6	-5	-12	·
O=C(NCN1C(=O)C2C3C=CC(C3)C2C1=O)Nc1ccccc1O (stereo not drawn)	2.0	7	9	2	9	-8	5017
CN1C(=O)NC(=O)/C(=C/c2ccc(C(=O)O)cc2)C1=O	2.7	14	-16	9	2	0	4247
Nc1nc2n(n1)C(c1ccco1)CC(c1ccccc1)N2 (stereo not drawn)	2.6	-4	-15	4	-3	4	15626
COc1ccc(-c2nonc2NC(=O)c2ccco2)cc1OC	4.5	9	7	0	-5	4	4283
COc1cccc(C(C)NC(=O)c2ccncc2)c1 (stereo not drawn)	-0.9	-1	-121	-3	15	1	3771
CCOc1ccc2[nH]c(C)c(CN3CCN(CC)CC3)c(=O)c2c1	-0.8	-7	-23	10	16	-3	3749
COc1ccccc1N1C(=O)c2ccc(C(=O)Nc3ccccc3O)cc2C1=O	0.6	4	-53	8	8	4	3717
O=C(NN=C/C=C\c1ccccc1[N+](=O)[O-])c1cccnc1	3.4	·	·	1	-6	7	·
O=C(COc1ccc2cc(Br)ccc2c1Br)N1CCOCC1	-0.5	·	-12	-11	5	-15	4128
COc1cc(/C=C/c2nc3ccccc3c(=O)n2-c2ccccc2O)ccc1O	93*	-11	-19	·	·	99*	4106
CCOCCCNc1ncc2c(n1)CC(c1ccc(C)cc1)CC2=O (stereo not drawn)	5.1	6	-28	6	-1	-7	2560
CCc1nn(CCCC(=O)NCc2ccc(C)cc2)c(=O)c2cc3occc3n12	-6.3	-2	-30	1	3	-4	6343
COCCN(Cc1ccc(C)c(Br)c1)C(=O)Cn1cnc(S(=O)(=O)N2CCCC2)c1	-0.3	1	-10	2	5	2	5553
Cc1cc(C)cc(OCC(=O)NNC(=O)c2ccoc2C)c1	0.3	-12	2	1	12	-1	10919
CCC(CC)Nc1ccc(C(CC(N)=O)NC(=O)c2ccccc2)cc1[N+](=O)[O-] (stereo not drawn)	4.3	-3	-3	20	13	-14	3642
OCc1nc2c(ccc3ccccc32)[nH]1	1.2	-14	-8	1	2	-6	3758
CCOC(=O)CC1=C(C(=O)OCC)C(c2cccnc2)C(C#N)=C(N)O1 (stereo not drawn)	-9.2	-12	-8	17	1	1	2843
COC(=O)c1ccc(C(=O)OC)c(NC(=O)c2cnc3n(c2=O)CCS3)c1	-2.5	-13	-19	3	-3	16	16274*
COc1ccccc1/C=C/C=N/NC(=O)CC1C(=O)NN=C1C (stereo not drawn)	·	-1	-17	·	·	·	5698
O=C(COC(=O)c1cccnc1Cl)NCCc1ccc(F)cc1	5.9	·	-25	8	2	9	3459
CSc1ncc(CN2CCN(C3CCCCC3)C(CCO)C2)cn1 (stereo not drawn)	12	11	38	-5	2	8	3112
CCOC(=O)C1CCCN(S(=O)(=O)c2ccc(-n3cnnn3)c(C)c2)C1 (stereo not drawn)	-0.1	2	-15	-2	-7	12	3452
COc1cc(-c2nnc(COC(=O)c3cc(C)no3)o2)cc(OC)c1OC	-3.1	14	-18	-7	-1	-6	5408
COc1ccc(OC)c(-c2csc(NC(=O)COC(=O)C3CCC3)n2)c1	9.2	·	-7	12	8	-2	3767
CC(=O)c1ccc(O)c(CO)c1	6.1	6	-32	5	7	0	2507
O=C(NC1CCC(=O)N(CCSc2ccc(Br)cc2)CC1)OCc1ccccc1 (stereo not drawn)	1.0	·	·	-2	7	6	·
Cc1ccc(S(=O)(=O)NCc2ccccc2)cc1C(=O)NCc1ccccn1	1.3	19	-1	9	15	3	6567
CCCC1COC(Cn2cncn2)(c2ccc(Cl)cc2Cl)O1 (stereo not drawn)	4.0	-8	-5	9	-2	8	4140
COc1ccc2[nH]c(=O)c(CN(C)C(=O)COc3ccccc3)cc2c1	4.2	-3	0	·	·	10	4727
Clc1ccc(-c2nc3cnccn3c2NC2CCCC2)cc1	-4.7	-11	4	12	2	-11	3693
O=C(O)C1CSC2(c3ccc(F)cc3)CCC(=O)N12 (stereo not drawn)	11	2	-9	-6	-3	4	4317
Cc1onc(-c2c(Cl)cccc2Cl)c1C(=O)NCc1ccc(S(N)(=O)=O)cc1	4.6	-10	-8	-6	-8	2	3871
CCOC(=O)c1c(NC(=O)CSc2nnnn2CC)sc(C)c1C	5.9	2	-4	·	·	3	3553
O=C(NC(=S)N1CCN(c2nc(-c3ccccc3)cs2)CC1)c1cncc(Br)c1	31	1	-21	-2	12	4	4386
Cc1ccc2c(c1)N(CCC(=O)NCc1ccc3c(c1)OCO3)C(=O)CO2	3.1	-1	-5	4	11	-5	9625
COc1ccccc1-c1nc2cc3ccccc3cc2nc1-c1ccccc1	-7.6	-3	-34	-7	10	46	2643
Cc1ccc(NC(=O)c2ccc(OCC3CCCO3)cc2)nc1 (stereo not drawn)	4.3	7	-70	-2	2	4	?
CCOC(=O)C1C2COc3ccc(OC)cc3C2N2C(=O)CN(Cc3ccco3)C(=O)[C@@]12C (stereo partly drawn)	3.1	·	·	8	5	0	·
Cc1ccc(NC(=O)CSc2nnnn2C)cc1S(=O)(=O)N(C)C	2.4	2	-73	3	-9	0	2488
CC1CN(c2c3c(nc4ncnn24)CCCC3)CC(C)O1 (stereo not drawn)	-3.3	-4	-7	·	·	2	3613
COCCN1C(=O)NC(c2cccc(C(F)(F)F)c2)C(C(=O)OC)C1C (stereo not drawn)	5.7&4.3	·	·	9&14	1&12	14&5	·
C(=N\Nc1nc2ccccc2[nH]1)/c1ccccc1	·	-8	55*	·	·	·	3861
CSc1nc2ccccc2n1Cc1cccc([N+](=O)[O-])c1	1.3	6	-8	4	3	2	2976
COc1ccc(S(=O)(=O)Nc2ccc3c(c2)n(C)c(=O)n3C)cc1	7.6	-1	-1	11	7	12	4790
CCC(c1nnc(SCC(=O)Nc2cc(Cl)ccc2C#N)n1C1CCCCC1)N(C)C (stereo not drawn)	1.5	-11	10	11	1	-2	1975
C[C@@H](Nc1nc(-c2ccccc2)nc2c1oc1ccccc12)C(=O)O	14	-2	-22	13	2	-8	13648
COC(=O)c1sccc1NC(=O)COc1ccccc1Cl	9.0	-5	-17	-6	14	6	2339
CCOC(=O)c1[nH]c(C)c(C(=O)Nc2ccc(C)c(Cl)c2)c1C	1.6	11	-35	8	8	-16	21453*
CCCc1cc(-c2[nH]ncc2-c2ccc(C(=O)OCC)o2)c(O)cc1O	5.8	0	-19	9	10	-23	13879
COc1cc(OC)c(OC)cc1/C=C/c1cc(C(=O)O)c2ccccc2n1	1.5	-5	-34	8	7	-8	4925
O=C(NCCc1ccccc1)C1CC=CC2CCN(Cc3ccccc3)C(=O)C21 (stereo not drawn)	4.8	·	·	11	7	7	·
Following part:
SMILES	RN4220 kill	BJeLR lethal	PrP 5UTR inh	Mtb hypoxia inh	Mtb hypoxia inh growth	ugtP null kill	Bead autofluor
Cc1noc(C)c1C(=O)NCCC1=CCCCC1	-1.2	-3	-21	5	3	1	11538
COc1ccc(CCNC(=O)C(C)n2nc(C)c3c(C)n(-c4ccc(C)cc4)nc3c2=O)c(OC)c1 (stereo not drawn)	-3.0	1	6	5	7	6	5688
O=C(c1ccco1)N1CCc2[nH]nc(-c3ccccc3)c2C1	3.7	7	9	14	7	0	5454
O=C(CNC(=O)c1ccccc1F)OCC(=O)N1CCCc2ccccc21	3.9	10	-13	1	9	8	2088
O=C(NC(=O)c1ccc(Cl)cc1)OC1CCCCC1	0.3	-7	-31	18	17	-5	7546
Cc1ccc(N2CC(C(=O)N3CCC(C(=O)Nc4nncs4)CC3)CC2=O)cc1 (stereo not drawn)	-0.9	0	-14	1	5	-2	3865
CC[C@@H](C)[C@@H](C(=O)N1CCN(C(=O)OC(C)(C)C)CC1)n1cc(CCCCNC(=O)OC(C)(C)C)nn1	·	9	-45	·	·	·	3672
CCOC(=O)c1sc2nc(C)nc(SC(C)C(=O)N(C)c3ccccc3)c2c1C (stereo not drawn)	12	·	-16	-2	7	9	3825
CCOC(=O)NC(NCc1ccccc1)(C(F)(F)F)C(F)(F)F	0.7	-2	21	-4	-4	-1	2633
NS(=O)(=O)c1ccc(CCNC(=O)CCc2nc3ccccc3s2)cc1	4.0	-4	-14	16	-1	6	4849
CNCCOc1ccc(Cl)c(Cl)c1	-4.0	0	-9	-3	3	-2	4307
Cc1ccc(C(=O)NNC(=O)c2cccc(Br)c2)cc1	·	-5	-7	·	·	·	3136
CC1=NC(C)(C)Cc2c(C)cccc21	5.8	-3	-2	10	-3	3	5497
Cc1ccc(F)cc1NC(=O)CN1C(=O)NC2(CCCc3ccccc32)C1=O (stereo not drawn)	0.2	11	2	2	12	2	?
CCCN1C(=O)/C(=C/c2ccc3c(c2)OCO3)NC1=S	1.0	2	-8	5	3	3	3587
O=C(CCNC(=O)C1CCN(S(=O)(=O)c2ccccc2)CC1)NCc1ccccc1Cl	5.1	0	-15	2	-2	10	4711
CN1CCN(C(=O)C2CCC(=O)N(CCc3cccc(F)c3)C2)CC1 (stereo not drawn)	5.1	0	-18	2	1	8	?
COc1ccc(NS(=O)(=O)c2ccc(C)c(C(=O)NCCCN3CCCC3=O)c2)cc1	-1.5	·	-8	8	10	-2	5864
N/C(=N\O)c1ccc(N2CCN(c3ncccc3C(F)(F)F)CC2)nc1	·	-5	-68	·	·	·	6403
COc1ccc(C(=O)NCCc2ccc(S(N)(=O)=O)cc2)cc1OC	0.5	-5	-16	-1	-1	-4	17513*
CC(=O)Nc1ccc2nc(CN3CCN(CC=C(C)C)C(CCO)C3)ccc2c1 (stereo not drawn)	1.2	11	-23	16	10	3	2081

Retrieved by structure from above (7):
SMILES	RN4220 kill	BJeLR lethal	PrP 5UTR inh	Mtb hypoxia inh	Mtb hypoxia inh growth	ugtP null kill	Bead autofluor
O=C(CCNC(=O)C1CCN(S(=O)(=O)c2ccccc2)CC1)NCc1ccccc1Cl	5.1	0	-15	2	-2	10	4711
CC(=O)Nc1ccc2nc(CN3CCN(CC=C(C)C)C(CCO)C3)ccc2c1 (stereo not drawn)	1.2	11	-23	16	10	3	2081
CC1=NC(C)(C)Cc2c(C)cccc21	5.8	-3	-2	10	-3	3	5497
COc1ccc(NS(=O)(=O)c2ccc(C)c(C(=O)NCCCN3CCCC3=O)c2)cc1	-1.5	·	-8	8	10	-2	5864
N/C(=N\O)c1ccc(N2CCN(c3ncccc3C(F)(F)F)CC2)nc1	·	-5	-68	·	·	·	6403
Cc1ccc(F)cc1NC(=O)CN1C(=O)NC2(CCCc3ccccc32)C1=O (stereo not drawn)	0.2	11	2	2	12	2	?
CCCN1C(=O)/C(=C/c2ccc3c(c2)OCO3)NC1=S	1.0	2	-8	5	3	3	3587

Rewritten with two lines to a compound: entries from further up.
The line under a structure holds: RN4220 kill	BJeLR lethal	PrP 5UTR inh	Mtb hypoxia inh	Mtb hypoxia inh growth	ugtP null kill	Bead autofluor
CC1=NC(C)(C)Cc2c(C)cccc21
    5.8	-3	-2	10	-3	3	5497
Cc1ccc(F)cc1NC(=O)CN1C(=O)NC2(CCCc3ccccc32)C1=O (stereo not drawn)
    0.2	11	2	2	12	2	?
